# GIRK2 act: GIRK2 channel activation; P48051; HEK293-GIRK2 thallium flux, Thallos fluorescence; calls only for hits at 25 µM; hit rate 0.05% among 63,000; AID 1259325;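 active = among the strongest 0.2% of first-round signals and kept after retests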;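 also: first round at about 10 µM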
# Target sequence (P48051 whole entry, looked up): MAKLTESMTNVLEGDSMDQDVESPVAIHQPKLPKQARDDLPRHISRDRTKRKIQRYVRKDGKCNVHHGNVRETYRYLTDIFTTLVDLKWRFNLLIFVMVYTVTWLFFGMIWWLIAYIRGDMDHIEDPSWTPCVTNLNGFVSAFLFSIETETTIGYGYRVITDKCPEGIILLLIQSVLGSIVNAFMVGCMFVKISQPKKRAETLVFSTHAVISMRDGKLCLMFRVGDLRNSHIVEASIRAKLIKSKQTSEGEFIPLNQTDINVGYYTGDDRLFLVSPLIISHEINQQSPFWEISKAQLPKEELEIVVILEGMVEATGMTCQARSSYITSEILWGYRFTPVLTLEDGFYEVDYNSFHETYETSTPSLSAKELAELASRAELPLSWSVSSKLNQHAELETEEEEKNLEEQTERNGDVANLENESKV
# Calls only; i = inactive. An excerpt (hit frequency here may not be typical).
GIRK2 act	Compound
i	Cc1nnc(C2CCCN(C(=O)C3COc4ccccc4O3)C2)s1 (centres undefined)
i	CCOc1ccc(C(=O)N2CC(c3nc(Cc4ccccc4)no3)C2)cc1OCC
i	COC1(CNC(=O)c2cc(-c3ccc(F)cc3)nn2C)CCSC1 (centres undefined)
i	O=C(N1CCN(c2ncccn2)CC1)C1(c2ccccc2)CCOCC1
i	C=CCOc1ccc(C(O)=C2C(=O)C(=O)N(c3cc(C)on3)C2c2cccc(OC)c2)cc1 (centres undefined)
i	COc1cccc(CC(=O)NCC#CCOc2ccc3c(c2)OCO3)c1
i	O=c1n(Cc2cccc(Br)c2)nc2c(S(=O)(=O)N3CCCCC3)cccn12
i	COc1ccc(OC)c(-c2cc3ccc(OC(=O)c4ccco4)cc3oc2=O)c1

# Quoted at random: two compounds from above
GIRK2 act	Compound
i	CCOc1ccc(C(=O)N2CC(c3nc(Cc4ccccc4)no3)C2)cc1OCC
i	COc1ccc(OC)c(-c2cc3ccc(OC(=O)c4ccco4)cc3oc2=O)c1

# Next results follow.
GIRK2 act	Compound
i	COc1ccc(C2C(=C(O)c3ccc(Cl)cc3)C(=O)C(=O)N2c2nccs2)cc1 (centres undefined)
i	CC1CCC(NC(=O)CCCn2c(=O)[nH]c3ccsc3c2=O)CC1 (centres undefined)
i	NC(=O)c1ccc(NC(=O)Cc2cc(-c3ccc(Cl)cc3)on2)cc1
i	CCOc1ccc(C(=O)Nc2ccc(OC)c(N3CCCC3=O)c2)cc1OCC
i	CC(C)NC(=O)Cc1ccc(-n2c(=O)c3ccccc3n(CC(=O)NCCc3ccccc3)c2=O)cc1
i	O=C(CN1CCCC(COCc2ccccc2)C1)Nc1ccccc1C(F)(F)F (centres undefined)
i	O=C(Nc1cccc(C(F)(F)F)c1)c1cccc(S(=O)(=O)N2CCOCC2)c1
i	COc1ccc(SCCCC(=O)Nc2cc(Cl)ccc2Cl)cc1
i	O=C(C1CCN(c2ncnc3c2sc2ncccc23)CC1)N1CCN(Cc2ccccc2)CC1
i	COc1ccc(OC)c(NC(=O)Cn2nc3c(cc2=O)CCCC3)c1
i	O=c1ccn(-c2ccc(Cl)cc2)nc1-c1nc(-c2ccc(Cl)cc2)no1
i	CCc1ccc(-c2ccc(=O)n(Cc3nc(-c4cc(OC)cc(OC)c4)no3)n2)cc1
i	C=CCn1c(=O)c2c(nc(-n3nc(C)cc3C)n2C)n(C)c1=O
i	Cc1ccc(S(=O)(=O)N(C)c2ccsc2C(=O)NCc2ccc(C(F)(F)F)cc2)cc1
i	CC(C)N(CC#CCNC(=O)Nc1ccc(Cl)cc1)C(C)C
i	CC(=O)Nc1nc(N2CCC(C(=O)NCc3cc(F)cc(F)c3)CC2)sc1C(=O)N1CCCC1
i	O=C(Nc1cccs1)N(CCc1cccs1)Cc1cccnc1
i	NS(=O)(=O)c1ccc(N2N=C(c3ccc(F)cc3)CC2c2ccc(F)cc2)cc1 (centres undefined)
i	CCNC(=O)O[C@H]1CN[C@H](C#Cc2cc3ncnc(Nc4ccc(OCc5cccc(F)c5)c(Cl)c4)c3s2)C1
i	CCCCc1ccc(S(=O)(=O)c2cnc(SCC(=O)NC3CCCCC3)[nH]c2=O)cc1
i	COc1cc(C(=O)Nc2ccc3c(c2)CCCN3C(=O)C2CC2)cc(OC)c1OC
i	Cc1c(N=Cc2coc3ccccc3c2=O)c(=O)n(-c2ccccc2)n1C
i	CC(=O)Nc1ccc(C(=O)NCCNS(=O)(=O)c2ccc(C(F)(F)F)cc2)cc1
i	CN1CC(=O)N2[C@H](c3ccc4c(c3)OCO4)c3[nH]c4ccccc4c3C[C@@H]2C1=O
i	CSc1ncccc1C(=O)NCCC(O)c1cc(C)oc1C (centres undefined)
i	Cc1c(C(=O)NCCCn2ncccc2=O)nnn1-c1nccs1
i	O=C(CSc1nnc(N2CCN(c3ccc(F)cc3)CC2)s1)N1CCOCC1
i	O=C(c1nc2ccccc2s1)N1CCC(Oc2nc3ccccc3s2)CC1
i	CCC(C)C(O)C(C)(O)/C=C/C1=CC2=C(Cl)C(=O)C(C)(O)C(O)C2CO1 (centres undefined)
i	Cc1ccccc1-c1csc2c(=O)n(Cc3ccccc3)cnc12
i	Cc1noc(C)c1CN1CCN(C(=O)c2c(F)cccc2Cl)CC1
i	CCc1cccc(C)c1NC(=O)Cn1cc(-c2ccccc2)c2ncn(CC)c(=O)c21
i	COc1ccccc1-n1nnc(C(=O)Nc2cccc(F)c2)c1C
i	O=C(CSc1nc2ccccc2s1)NCc1nc(-c2ccccc2)no1
i	O=C(/C=C/c1ccccc1Cl)N1CC(c2nc(-c3ncccn3)no2)C1
i	COC(=O)c1ccc(C(=O)N(Cc2ccoc2)Cc2cccs2)cc1
i	Cc1nn(C)cc1S(=O)(=O)Nc1c(C)n(C)n(-c2ccccc2)c1=O
i	CC1(O)CC(O)C2(O)C=COC(O[C@@H]3O[C@H](CO)[C@@H](O)[C@H](O)[C@H]3O)C12 (some centres undefined)
i	COc1ncc(C(=O)N2CCN(c3ccccc3Cl)CC2)cn1
i	O=C(Nc1ccc(Cl)cc1)c1ccc(N2C(=O)c3ccccc3C2=O)cc1
i	C=C(C)COc1ccc(-c2nc(N)nc(C(F)(F)F)c2-c2ccccc2OC)c(O)c1
i	COc1cccc(Nc2c(C(=O)N3CCCC(C)C3)cnc3nc(C)ccc23)c1 (centres undefined)
i	COc1ccc(C(=O)N2CCC(c3nnc(C(C)C)o3)CC2)c(OC)c1
i	COCCn1nnn(-c2ccc(NC(=O)CCS(=O)(=O)c3ccccc3)cc2)c1=O
i	CN(CC(=O)NCC#CCOc1ccc2c(c1)OCO2)S(C)(=O)=O
i	O=C(NCc1n[nH]c(=O)c2ccccc12)c1ccccc1Br
i	Cc1onc(-c2ccccc2Cl)c1C(=O)Nc1sccc1-c1nc2ccccc2s1
i	O=C(O)CCC(=O)N1N=C(c2ccc(Br)cc2)CC1c1nc2ccccc2[nH]1 (centres undefined)
i	Cn1c(=O)c2c(nc(N3CCCCC3)n2Cc2ccccc2Cl)n(C)c1=O
i	CCOC(=O)CCC(=O)N(CCn1cccn1)c1nc2c(C(F)(F)F)cccc2s1
i	N#Cc1cnc2ccc(F)cc2c1N1CCC(C(=O)N2CCC3(CC2)OCCO3)CC1
i	COc1ccc(C)cc1NC(=O)Cn1nc(C(=O)N2CCOCC2)cc1-c1cccs1
i	O=C(NCCc1ccccc1)Nc1ccc(CN2CCN(c3ccccn3)CC2)cc1
i	Cc1nccn1CC1CCN(C(=O)COc2ccc(Cl)cc2Cl)CC1
i	CCOC(=O)c1ccc(NC(=O)CN2N=NC3C(=O)N(c4ccc(Cl)cc4)C(=O)C32)cc1 (centres undefined)
i	Cn1c(=O)[nH]c2c(C(=O)N3CCN(c4ccccc4Cl)CC3)snc2c1=O

# 4 entries from above in a different format.
Cn1c(=O)c2c(nc(N3CCCCC3)n2Cc2ccccc2Cl)n(C)c1=O
  GIRK2 act: i
N#Cc1cnc2ccc(F)cc2c1N1CCC(C(=O)N2CCC3(CC2)OCCO3)CC1
  GIRK2 act: i
CCOC(=O)CCC(=O)N(CCn1cccn1)c1nc2c(C(F)(F)F)cccc2s1
  GIRK2 act: i
Cc1nccn1CC1CCN(C(=O)COc2ccc(Cl)cc2Cl)CC1
  GIRK2 act: i

# Following part.
GIRK2 act	Compound
i	COC(=O)c1cccc(NC(=O)Cn2nc3c(Oc4ccccc4)nccn3c2=O)c1
i	CC(CCc1ccccc1)Nc1ncc2c(=O)n(Cc3ccccc3)c(=O)[nH]c2n1 (centres undefined)
i	CC(C)N1CCc2c(sc(NC(=O)Cc3ccccc3)c2-c2nc3ccccc3s2)C1
i	CC(C)c1nnc(C2CCN(Cc3csc(-c4ccccc4)n3)CC2)o1
i	COc1cccc2cc(C(=O)NCCc3c[nH]c4ccc(Cl)cc34)oc12
i	CCNC(=O)N1CCC2(CCc3ccccc3O2)CC1
i	O=C(CCCS(=O)(=O)c1ccccc1)Nc1nnc(-c2ccc3c(c2)CCCC3)o1
i	CNC(=O)CCNS(=O)(=O)c1ccc(OC)c(N(C)S(=O)(=O)c2ccc(Cl)cc2)c1
i	CCc1ccc(S(=O)(=O)Nc2cnc(N3CCOCC3)nc2)cc1
i	O=C(c1ccccc1)N1CCCc2ccc(NS(=O)(=O)c3ccc(Br)cc3)cc21
i	COc1cc(C(=O)Nc2ccc3c(c2)CCC(=O)N3CCC(C)C)cc(OC)c1OC
i	COc1ccc(-c2ccc(=O)n(CCNS(=O)(=O)c3cc(Br)ccc3OC)n2)cc1
i	CN1CCN(c2cc(NC(=O)Nc3ccc4c(c3)OCCO4)ncn2)CC1
i	O=C(c1ccncc1)N1CCN(S(=O)(=O)C2CC2)CC1
i	COc1cccc(CN2CC(c3nc(C)no3)C2)c1OC
i	Cc1csc(SCC2CCN(C(=O)C34CC5CC(CC(C5)C3)C4)CC2)n1
i	Cn1cccc(C(=O)N(Cc2ccoc2)Cc2cccs2)c1=O
i	Cn1nc(C(=O)Nc2cc(N3CCOCC3)ncn2)ccc1=O
i	O=C(NCCC(O)c1ccc2c(c1)OCO2)C(=O)Nc1ccc(F)c(Cl)c1 (centres undefined)
i	COc1ccc(OCC(=O)Nc2cc(-c3cccs3)nn2-c2nc(C)cc(=O)[nH]2)cc1
i	O=C(NCc1ccccn1)c1ccc(S(=O)(=O)N2CCOCC2)cc1
i	COC(=O)CCCc1c(-c2ccccn2)[nH]c2cc(C)cc(C)c12
i	CSc1ncc(Cl)c(C(=O)Nc2ccc(Br)cn2)n1
i	O=C(c1ccco1)N1CCN(C(=O)C2CCCN(c3ccc(-c4ccc(Cl)cc4)nn3)C2)CC1 (centres undefined)
i	COc1ccc(CNC(=O)Cn2cnc3c(c2=O)CN(Cc2ccccc2)CC3)cc1
i	CCOc1ccccc1NC(=O)NCC1CCN(C(=O)c2ccncc2)CC1
i	O=C(CSC1CCCC1)N(CCc1cccs1)C1CC1
i	COc1cccc(NC(=O)c2cn(C)nc2S(=O)(=O)N2CCN(c3cccc(Cl)c3)CC2)c1
i	COc1cccc(NC(=O)N2CC(Oc3nc4c(C)cccc4s3)C2)c1
i	NC(=O)c1ccc(NC(=O)CCCn2cccc2)cc1
i	Cc1cc(C)n(C(=O)c2sccc2S(=O)(=O)N(C)c2ccc3c(c2)OCO3)n1
i	CCCCn1c(SCC(=O)Nc2ccc(OC)c(Cl)c2)nc2c(sc3ncccc32)c1=O
i	CCOC(=O)N1CCN(S(=O)(=O)c2cc(Cl)cc(Cl)c2O)CC1
i	CC(C)Oc1ccc(-c2noc(Cn3ncn4nc(-c5ccc(F)cc5)cc4c3=O)n2)cc1
i	CC(C)=CCC/C(C)=C/Cc1ccc(O)c(C(=O)c2c(O)cc(C(=O)O)cc2C=O)c1O
i	O=C(c1ccc2ccccc2c1)N1CCOC2(CCOCC2)C1
i	COc1ccc(CCNC(=O)C2(c3cccs3)CCCC2)cc1OC
i	CCCn1c(=O)c2c(nc3n2CC(C)=NN3CCN2CCCCC2)n(C)c1=O
i	COC(=O)c1ccc(N2C(=O)C3ON(c4ccccc4)C(c4ccco4)C3C2=O)cc1 (centres undefined)
i	Cc1nc(NC(=O)CN(C)c2nc3ccccc3s2)sc1C(=O)N(C)C
i	COc1ccc(Cl)cc1NC(=O)NCCc1cc(C)no1
i	c1ccc2c(c1)CCCC2C1=NCCN1 (centres undefined)
i	COc1ccc(N2Cc3ccccc3OCC2=O)cc1Cl
i	O=C(CSc1ccc(F)cc1)NCC1(O)CCOc2ccccc21 (centres undefined)
i	CCOC(=O)/C(C#N)=C1\SC(Cc2ccccc2)C(=O)N1c1ccc(Br)cc1 (centres undefined)
i	CSc1ccccc1NC(=O)C(C)N1C(=O)c2ccccc2S1(=O)=O (centres undefined)
i	COc1ccc(CCNc2oc(-c3ccc(S(=O)(=O)N4CCOCC4)cc3)nc2C#N)cc1OC
i	Cc1c(Cl)cccc1S(=O)(=O)Oc1ccc2c(c1)ncn2C
i	CCOC(=O)CN1CCC(Cn2cnc3ccccc32)CC1
i	O=C(C(=O)N1CCOCC1)c1cn(CC(=O)N2CCCC2)c2ccccc12
i	Cc1ccc(CNC(=O)C(=O)c2cn(CC(=O)N3CCOCC3)c3ccccc23)cc1
i	Cn1nnn(-c2ccc(NC(=O)C(C)(C)C)cc2)c1=O
i	COCCCn1c(C(=O)NCC(=O)OC(C)C)cc2c(=O)n3ccccc3nc21
i	O=C(NC(=S)Nc1sccc1Br)c1ccccc1
i	CCOc1ccc(N2CCN(CC(=O)Nc3ccc(SC)cc3)C2=O)cc1
i	C=C1CCCC2(C)CCC(C(C)(C)OC3OC(C)C(O)C(O)C3OC(=O)/C(C)=C\C)CC12 (centres undefined)

# The list goes on.
GIRK2 act	Compound
i	O=C(NCC1CCN(C(=O)Oc2ccccc2)CC1)c1ccc(Br)o1
i	COc1ccc(CNC(=O)Cn2nc3ccc(-c4ccc(C)c(C)c4)nn3c2=O)cc1
i	COc1cccc(N2CC(C(=O)Nc3cccc(-c4ccn[nH]4)c3)CC2=O)c1 (centres undefined)
i	CN(C)c1nn(CC(=O)N2CCN(c3ccccc3)CC2)cc1-c1ccccc1
i	C=CCOc1cccc(C2C(=C(O)c3ccccc3)C(=O)C(=O)N2c2cc(C)on2)c1 (centres undefined)
i	COc1cccc(-c2noc(Cn3c(=O)n(-c4ccc(C)cc4)c(=O)c4sccc43)n2)c1

# Structural class: those above containing a furan ring, fused or not.
GIRK2 act	Compound
i	COc1ccc(OC)c(-c2cc3ccc(OC(=O)c4ccco4)cc3oc2=O)c1
i	CSc1ncccc1C(=O)NCCC(O)c1cc(C)oc1C (centres undefined)
i	COC(=O)c1ccc(C(=O)N(Cc2ccoc2)Cc2cccs2)cc1
i	COc1cccc2cc(C(=O)NCCc3c[nH]c4ccc(Cl)cc34)oc12
i	Cn1cccc(C(=O)N(Cc2ccoc2)Cc2cccs2)c1=O
i	O=C(c1ccco1)N1CCN(C(=O)C2CCCN(c3ccc(-c4ccc(Cl)cc4)nn3)C2)CC1 (centres undefined)
i	COC(=O)c1ccc(N2C(=O)C3ON(c4ccccc4)C(c4ccco4)C3C2=O)cc1 (centres undefined)
i	O=C(NCC1CCN(C(=O)Oc2ccccc2)CC1)c1ccc(Br)o1

# Source: PubChem
